Beta2AR agonist: human beta-2 adrenergic receptor agonism by FAP | P07550 | Am2.2-beta2AR cells, FAP receptor internalization, flow cytometry; reference of the scale not given here | response, % (no concentration beside the values) | actives 0.43% (n = 340,000);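 active means response above a set limit, near 3 SD of response in nonfluorescent compounds, cut at about 42% in these data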;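 further: stock transfer was 100 nL into about 11 µL; a reference agonist was the positive control; negative values mostly stem from fluorescent compounds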
Vif TR-FRET: inhibitors of Vif binding to APOBEC3G peptide, primary screen, biochemical, TR-FRET, GST-Vif 1-94, biotin-A3G peptide, dose response retest (AID 1117319); TR-FRET GST-Vif / biotin-A3G peptide binding; higher % means a stronger effect; test concentration not given here; strong numbers were not always called active; one-dose inhibition, %; IC50 in µM for titrated hits; actives 0.57% (n = 260,000);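 active means above the screen mean plus three standard deviations and confirmed in dose response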;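 further: Vif residues 1-94 fused to GST binding biotinylated APOBEC3G peptide 110-148; 0% = full assay without inhibitor and 100% = GST in place of GST-Vif; retest series ran down from 100 µM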
Bfl-1 A1 inh: inhibitors of the anti-apoptotic protein A1, read as caspase activation; MEF A1-2A-BIM cells, Caspase-Glo 3/7 luminescence, 3 h; percent of clofoctol response, vehicle zero; caspase activation, % (test concentration not listed); actives 0.066% (n = 330,000);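 active means over half of replicate activation scores above 10%, or exactly half above 10 with the replicate mean above 10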;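 further: wells of about 30 µL received 50 nL stock; many hits fall short of the cut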
LANA-H2A inh: blocks KSHV LANA binding to histone H2A/H2B. Q9QR71. cell-free LANA-H2A/H2B peptide, fluorescence polarization. inhibition, % (test concentration not listed). actives 0.6% (n = 320,000); in the data active means inhibition mostly above about 10%, no sharp cut-off; inactive means mostly below about 6.7%;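 further: stock transfer was 7.5 nL into about 10 µL; 0% = median of vehicle wells and 100% = median of positive control wells; one replicate is shown; the record names a cut of 25% in any replicate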
Target sequence (Q9QR71 whole entry, looked up): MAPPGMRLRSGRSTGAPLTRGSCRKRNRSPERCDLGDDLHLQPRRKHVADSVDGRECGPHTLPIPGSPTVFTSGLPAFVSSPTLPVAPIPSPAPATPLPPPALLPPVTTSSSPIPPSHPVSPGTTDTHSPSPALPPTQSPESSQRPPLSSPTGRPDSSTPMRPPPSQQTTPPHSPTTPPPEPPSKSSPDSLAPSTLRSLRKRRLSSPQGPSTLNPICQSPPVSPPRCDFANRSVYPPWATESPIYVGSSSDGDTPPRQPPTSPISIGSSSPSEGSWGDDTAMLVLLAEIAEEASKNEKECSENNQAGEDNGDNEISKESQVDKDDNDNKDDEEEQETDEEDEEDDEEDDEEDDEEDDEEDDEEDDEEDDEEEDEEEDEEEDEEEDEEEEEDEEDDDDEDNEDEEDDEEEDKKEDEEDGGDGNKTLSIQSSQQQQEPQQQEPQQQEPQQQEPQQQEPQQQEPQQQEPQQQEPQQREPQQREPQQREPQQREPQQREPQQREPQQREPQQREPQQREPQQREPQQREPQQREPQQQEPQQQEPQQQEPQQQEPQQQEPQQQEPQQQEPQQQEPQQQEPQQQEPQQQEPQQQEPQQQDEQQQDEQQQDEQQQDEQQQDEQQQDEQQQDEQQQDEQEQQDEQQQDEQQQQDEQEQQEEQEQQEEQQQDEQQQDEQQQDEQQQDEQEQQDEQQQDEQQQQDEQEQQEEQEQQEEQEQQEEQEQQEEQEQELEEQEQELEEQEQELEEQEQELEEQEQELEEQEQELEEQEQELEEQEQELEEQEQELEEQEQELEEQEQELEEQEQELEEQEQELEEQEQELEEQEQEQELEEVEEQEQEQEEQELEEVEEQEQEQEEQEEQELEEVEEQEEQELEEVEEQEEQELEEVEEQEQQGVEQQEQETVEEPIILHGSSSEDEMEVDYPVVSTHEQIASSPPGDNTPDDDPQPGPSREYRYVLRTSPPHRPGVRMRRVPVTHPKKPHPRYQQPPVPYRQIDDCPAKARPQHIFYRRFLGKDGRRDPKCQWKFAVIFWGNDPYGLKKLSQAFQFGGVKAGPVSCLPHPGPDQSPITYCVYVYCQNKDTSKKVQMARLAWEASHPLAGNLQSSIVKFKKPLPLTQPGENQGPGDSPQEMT
HNF4A DNA FP: change in binding of human HNF4 alpha to DNA | activity change, % at 10 µM | AID 1224865 | actives 0.3% (n = 360,000) | HNF4a-FITC DNA binding, fluorescence polarization, 1 h | P41235; in the data active means activity change above about 30%, passing the limit was not always enough;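 further: controls were the assay level and a saturating level of protein; the project sought stronger binding though the title names inhibitors; some compounds called inactive have numbers as strong as hits; positive values seem to mean higher polarization but the record does not say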
UCH37 inh: human UCH37 deubiquitinating enzyme inhibition; inhibition, % (concentration not given with the values); purified proteasome/UCH37, Ub-AMC cleavage fluorescence; actives 0.33% (n = 330,000);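 active means mean of two replicates above 20%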;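 further: 0% = compound-free wells with enzyme and 100% = wells lacking proteasome; stock transfer was 100 nL into about 20 µL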
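system = Proteasome-associated human UCH37 deubiquitinase | amount = 0.15 nM proteasome as dispensed | medium = pH 7.4 Tris-HCl (50 mM) with ovalbumin, ATP-MgCl2, DTT | incubation = 30 min preincubation with enzyme, 25 min cleavage at room temperature | detection = AMC fluorescence 355/460 nm | read-out basis = percent inhibition | controls = no-proteasome and no-compound wells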
E coli growth: E. coli growth inhibition | Escherichia coli growth, OD600, 23 h; stronger effect = lower value | OD600 absorbance (concentration not given with the values) | actives 0.21% (n = 330,000) | AID 1053175;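 active means OD600 absorbance below the run mean of sample wells minus 3.6 SD, in any replicate, cut at about 0.56 in these data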;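 further: stock transfer was 300 nL into about 60 µL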
Numbers without * were called inactive; . = not tested or not shown.

no.	smiles	Beta2AR agonist	Vif TR-FRET	Bfl-1 A1 inh	LANA-H2A inh	HNF4A DNA FP	UCH37 inh	E coli growth
1	CC[C@@]12C(=O)N(c3ccccc3)C(=O)N1[C@H](c1ccc(Br)cc1)[C@@H]1C(=O)N(C(C)(C)C)C(=O)[C@@H]12	0	.	-0.1	-0.9	-4.4	0.6	.
2	CC(C)[C@H](NC(=O)c1cccc(S(=O)(=O)N2CCOCC2)c1)C(=O)OCC(=O)Nc1cccc(Br)c1	3	.	.	.	2.8	4.7	0.73
3	COc1ccc2c(C)c(CCC(=O)NCCCN3CCCC3=O)c(=O)oc2c1C	-4	.	0.3	1.5	0.6	-142	0.75
4	Cn1c(=O)c2c(nc(Oc3cccc(Br)c3)n2C)n(C)c1=O	2	.	0.3	0.0	2.3	0.3	0.68
5	CCN(CC)S(=O)(=O)c1ccc2oc(C(=O)N3CCc4ccccc4C3)c(C)c2c1	-1	-6%	-0.1	-2.1	-4.1	1.2	0.73
6	Cc1cccc(/C=C2/SC(=O)N(Cc3ccccc3)C2=O)n1	4	3%	0.8	5.8	-0.2	4.3	0.68
7	O=C(O)c1ccc2c(=O)n3c(nc2c1)/C(=C/c1ccc(C(F)(F)F)cc1)CC3	-3	0%	0.1	-2.1	-3.0	-64	0.68
8	CC(C)(C)C1=C(C#N)C(c2ccncc2)C(C#N)=C(N)O1 (stereo not given)	0	-1%	-0.3	-1.3	3.4	-0.5	0.67
9	O=C(c1cc2ccccc2oc1=O)N(Cc1ccccc1)CC1CCCO1 (stereo not given)	1	7%	-0.2	7.2	-1.5	1.8	0.72
10	Cc1ccc2c(c1)N(CCC(=O)NCc1ccco1)C(=O)CO2	2	0%	-0.2	7.0	-0.1	3.6	0.62
11	COc1ccc(-n2nc(C(=O)NCC(=O)NCc3ccccc3OC)c3ccccc3c2=O)cc1	3	.	0.1	5.6	-0.1	-36	0.62
12	Nc1nc(SCC(=O)Nc2ccc([N+](=O)[O-])cc2)n[nH]1	11	-3%	0.0	9.7	-1.5	4.5	0.66
13	Cc1cc(C)n(-c2ccc(C(=O)N3CCN(S(=O)(=O)c4ccc(C(C)C)cc4)CC3)cc2)n1	0	25%	0.3	-1.8	-6.9	2.5	0.62
14	O=c1c(-c2ccc(F)cc2)[n+]([O-])c2ccccc2n1OCc1ccccn1	-17	.	0.2	-3.6	-0.5	-10	0.71
15	O=C1c2ccccc2C(=O)N1CC(O)COc1ccc(Cl)cc1 (stereo not given)	-11	.	-0.9	0.4	0.3	-0.3	0.63
16	O=C(O)CN1CCN(Cc2ccccc2)C1=O	-3	0%	0.0	1.8	1.7	-0.4	0.67
17	O=C(NCCN1CCCCC1)Nc1cccc(F)c1	-3	.	-0.1	8.6	1.7	2.3	0.7
18	CCCCCn1c(N)c(-c2nc3ccccc3o2)c2c([N+](=O)[O-])nn(C)c(=O)c21	-17	.	0.2	9.2	-35	3.6	0.67
19	N#CCC(=O)Nc1ccc(C(=O)N2CCN(c3ccccn3)CC2)cc1	-8	.	0.8	1.0	-2.6	4.3	0.66
20	CCC(C(=O)NCCN1CCOCC1)n1nc(C)n2c(cc3sccc32)c1=O (stereo not given)	-14	.	-0.1	5.1	1.3	4.1	0.68
21	Cc1ccc(NC(=O)CSc2nnc(C)n2C2CC2)cc1S(=O)(=O)N1CCOCC1	3	-9%	-0.2	-5.0	-1.3	3.3	0.69
22	Cc1cccc2c1cnn2C(=O)CCC(=O)NCc1ccc(F)cc1	4	-21%	0.3	-7.6	0.1	4.0	0.73
23	CC(=O)N1C(=O)/C(=C2\SC(=S)N(NS(=O)(=O)c3ccc(C)cc3)C2=O)c2ccccc21	3	19%	.	.	3.5	6.1	0.7
24	Cc1ccc2c(c1)nnn2C1CCN(C(=O)c2cccs2)CC1	8	-7%	0.0	-0.1	3.2	0.0	0.71
25	Cc1cc(Br)cc(Br)c1OCC(=O)NNC(=O)c1ccoc1C	-5	.	-0.4	5.6	1.2	0.4	0.63
26	CC(Oc1ccccc1C(N)=O)C(=O)Nc1ccc(S(=O)(=O)N2CCCC2)cc1 (stereo not given)	9	4%	-0.1	4.4	2.0	-0.4	0.64
27	Cc1cc(Cl)cc(Cl)c1OCCOCCN(C)C	8	-6%	-0.5	2.7	-3.5	1.5	0.71
28	CC1CN(C(=O)c2cccc(S(=O)(=O)N3CCN(c4ccc(F)cc4)CC3)c2)CC(C)O1 (stereo not given)	2	.	-0.4	-1.0	-2.8	3.9	0.72
29	CCCCCCCNC(=O)C1(CC2CC(c3ccccc3)=NO2)CCN(C(=O)OC(C)(C)C)CC1 (stereo not given)	-5	.	-0.5	-2.6	-0.9	-1.5	0.7
30	COc1ccc(-c2nnc(NC(=O)CS(=O)(=O)c3ccc(F)cc3)o2)c(OC)c1	7	3%	-0.8	3.3	-1.5	7.7	0.65
31	Cc1cccc(CSCCNC(=O)c2ccc(N(C)S(=O)(=O)c3ccccc3)cc2)c1	3	22%	0.3	1.4	-1.0	5.4	0.77
32	Cc1ccc2ccccc2c1COC(=O)c1nonc1N	-11	5%	0.5	0.5	-0.8	0.1	0.72
33	CC(C)c1ccc(N2C(=O)C3C4C=CC(CC4)C3C2=O)cc1 (stereo not given)	-1	-4%	0.8	3.2	0.5	0.2	0.67
34	O=C(OCc1nc2scc(-c3ccccc3)c2c(=O)[nH]1)c1cc([N+](=O)[O-])ccc1Cl	7	1%	0.9	1.5	1.9	0.9	0.72
35	Cc1cccc([C@@H]2[C@@H]3C(=O)N(Cc4ccccc4)C(=O)[C@@H]3[C@]3(Cc4ccccc4)C(=O)N(c4cccc(F)c4)C(=O)N23)c1	-6	.	0.8	1.0	3.1	3.8	.
36	O=c1cc[nH]c2ccc(Cl)cc12	-2	8%	1.2	-2.6	-0.6	1.8	0.61
37	Cc1nn(-c2ccc(NC(=O)c3ccncc3)cc2)c(C)c1Cl	8	.	-2.6	-0.9	-0.3	0.9	0.66
38	CCOC(=O)Cn1c(=O)oc2cc(S(=O)(=O)Nc3ccc(F)cc3)ccc21	1	0%	0.5	1.2	-1.3	.	.
39	COC(=O)C1=C(C)Nc2sc(C(N)=O)c(N)c2C1c1ccncc1 (stereo not given)	3	-2%	-0.7	3.4	4.6	-23	0.67
40	CC(c1nc2ccccc2c(=O)[nH]1)N(C)CCOc1ccc(Cl)cc1 (stereo not given)	-4	7%	-0.3	-7.2	-2.6	2.8	0.65

Values by screen from the entries so far:
Nos. 24 to 35 in UCH37 inh, in turn: 0.0, 0.4, -0.4, 1.5, 3.9, -1.5, 7.7, 5.4, 0.1, 0.2, 0.9, 3.8

Continuation.
no.	smiles	Beta2AR agonist	Vif TR-FRET	Bfl-1 A1 inh	LANA-H2A inh	HNF4A DNA FP	UCH37 inh	E coli growth
41	Cc1ccccc1C(=O)Nc1ccc(C(=O)N/N=C/c2ccc(O)c(Br)c2)cc1	11	11%	0.4	-0.4	-1.4	.	.
42	CNc1ccc(S(=O)(=O)NC)cc1[N+](=O)[O-]	6	10%	0.7	-9.1	0.2	5.2	0.66
43	O=C(O)CCC1COc2ccccc2O1 (stereo not given)	-4	3%	1.5	8.2	-1.9	4.9	0.69
44	CCN(CC)S(=O)(=O)c1cc(NC(=O)CCn2[nH]c(=O)ccc2=O)ccc1C	-13	.	1.0	-2.1	-1.7	1.9	0.68
45	c1nc2nc3c(c(N4CCOCC4)n2n1)CCCC3	0	2%	0.3	-0.7	0.5	4.4	0.72
46	COC(=O)Cn1c(=NC(=O)CN2C(=O)CCC2=O)sc2cc(S(N)(=O)=O)ccc21	-2	-170%	0.5	0.1	-1.7	.	.
47	O=C(COc1nnc2ccccn12)N1CCN(S(=O)(=O)c2ccccc2)CC1	1	.	0.0	1.0	-0.9	-160	0.72
48	O=C(Nc1cccc(F)c1)c1cc(S(=O)(=O)N2CCOCC2)ccc1N1CCCC1	9	0%	-0.3	1.2	-2.1	1.4	0.7
49	C[C@]12C=CC(=O)C=C1CC[C@@H]1[C@@H]2[C@@H](O)C[C@@]2(C)[C@H]1CC[C@]2(O)C(=O)CO	8	.	0.5	5.9	-2.1	5.0	.
50	CCOC(=O)c1ccc(N=CC2=C(O)CC(C)(C)CC2=O)cc1	-1	1%	1.0	3.5	0.2	1.6	0.69
51	Cc1cc(C(=O)OCC(=O)c2ccc(Cl)c([N+](=O)[O-])c2)c2cccc(C)c2n1	10	5%	-0.4	-2.0	-0.7	4.8	0.72
52	COc1ccc(NC(=O)Nc2ccc3c(c2)C(=O)N([C@H](C)CO)C[C@H](C)[C@@H](CN(C)C(=O)Nc2c(C)noc2C)O3)cc1	2	.	-1.4	5.5	4.2	2.6	.
53	COc1cccc(CN(C)C(=O)c2cc(S(=O)(=O)NC3CCCCC3)ccc2C)c1	1	.	0.1	2.9	-1.0	0.3	0.69
54	COc1ccccc1/C=N/NC(=O)c1cccc(OC(F)(F)C(F)F)c1	-5	32%	-0.2	4.1	-1.7	.	.
55	COc1ccc(CNc2nc3ccccc3n2C(C)C)cc1	-1	.	-0.2	-2.6	1.1	4.8	0.66
56	O=C1C2=C(c3ccccc31)[N+](=O)[C@@H]1CCCC[C@@H]1N2[O-]	4	8%	-0.4	-0.9	-3.9	26*	0.64
57	CN1CCN(c2ccc(C(CC(N)=O)NC(=O)c3ccccc3)cc2[N+](=O)[O-])CC1 (stereo not given)	3	.	-3.5	8.5	1.9	2.7	0.69

2 consecutive records already listed, quoted:
no.	smiles	Beta2AR agonist	Vif TR-FRET	Bfl-1 A1 inh	LANA-H2A inh	HNF4A DNA FP	UCH37 inh	E coli growth
47	O=C(COc1nnc2ccccn12)N1CCN(S(=O)(=O)c2ccccc2)CC1	1	.	0.0	1.0	-0.9	-160	0.72
48	O=C(Nc1cccc(F)c1)c1cc(S(=O)(=O)N2CCOCC2)ccc1N1CCCC1	9	0%	-0.3	1.2	-2.1	1.4	0.7

Two entries drawn at random from the list so far, as already listed:
no.	smiles	Beta2AR agonist	Vif TR-FRET	Bfl-1 A1 inh	LANA-H2A inh	HNF4A DNA FP	UCH37 inh	E coli growth
39	COC(=O)C1=C(C)Nc2sc(C(N)=O)c(N)c2C1c1ccncc1 (stereo not given)	3	-2%	-0.7	3.4	4.6	-23	0.67
31	Cc1cccc(CSCCNC(=O)c2ccc(N(C)S(=O)(=O)c3ccccc3)cc2)c1	3	22%	0.3	1.4	-1.0	5.4	0.77

An excerpt of these results, screen by screen.
29. CCCCCCCNC(=O)C1(CC2CC(c3ccccc3)=NO2)CCN(C(=O)OC(C)(C)C)CC1 (stereo not given)
30. COc1ccc(-c2nnc(NC(=O)CS(=O)(=O)c3ccc(F)cc3)o2)c(OC)c1

| screen / no. | 29 | 30 |
| --- | --- | --- |
| Beta2AR agonist | -5 | 7 |
| Vif TR-FRET | . | 3% |
| Bfl-1 A1 inh | -0.5 | -0.8 |
| LANA-H2A inh | -2.6 | 3.3 |
| HNF4A DNA FP | -0.9 | -1.5 |
| UCH37 inh | -1.5 | 7.7 |
| E coli growth | 0.7 | 0.65 |
